# TRPML1 inh: human mucolipin-1 channel inhibition; AID 624415; TRPML1-inducible cells, Ca2+ dye fluorescence, FDSS; active compounds read low; inhibition of EC80 agonist-evoked calcium signal; 390,000 tested, 0.02% active; activity change, negative = inhibition, % (concentration not given with the values); Q9GZU1; in the data active means activity change below about -50%; inconclusive means about -30% to -50%; inactive means above about -30%;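 further: stimulus is agonist 54-4 at its EC80 concentration; on the % scale 0 is the no-effect control and ±100 the full control effect; the text of the record puts the active cut at -80%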
#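 TRPML1-DL cells, Tet-induced overnight (~16 h, 37 °C) at 1,500 cells/well, were loaded with Ca8 no-wash dye plus quencher for 45-90 min at room temperature. Compounds were pinned during FDSS kinetic reading; agonist 54-4 at EC80 (4 uM final) then added.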
# PINK1 modulator: PINK1 expression modulation; PINK1 immunofluorescence, high-content cytometry, 24 h; Potency, µM (top dose mostly 76.6 µM), for the others: top-dose activation (PINK1 increase), usual class: activators; 410,000 tested, 0.2% active; active = well fitted activation curve with a large enough effect; inconclusive = small, poorly fitted or top-dose-only effect; inactive = flat fitted curve, though single readings scatter; cell line not stated here;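 further: potency means the concentration at half of the fitted maximal effect; % of control where 0% means no effect; nearly all actives have a fitted effect of over 65% in size; a mitochondrial uncoupler was the plate control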
#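 Readout is PINK1 immunofluorescence, quantified alongside mitochondrial, cell and nuclear markers by laser-scanning microplate cytometry. Cells from a stable line were exposed to compound titrations (5 concentrations) for 24 hours, with CCCP controls.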
# D2 ag: agonists of human D2 dopamine receptor (beta-arrestin); P14416; 360,000 tested, 0.084% active; AID 624465; activation, % (concentration not given with the values); DiscoveRx PathHunter D2 beta-arrestin, luminescence, 90 min; 100% = 57 uM dopamine signal; in the data active = activation above about 40%; inconclusive = about 15% to 40%; inactive = below about 15%; further: compound concentration not given in the record; the text of the record calls up to 30% inactive
#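 DiscoveRx PathHunter D2 beta-arrestin cells (2,100/well) attached overnight, then compound-stimulated 90 min at 37 C in HBSS/10 mM HEPES/0.1% Tween-20 buffer; beta-galactosidase complementation read by luminescence after 1 h at ambient temperature. Dopamine 57 uM final (EC100) as control.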
# TRPML1 agonist: human mucolipin-1 channel agonism; TRPML1-expressing cells, Ca2+ dye fluorescence, FDSS; host cell line not named in the record; reference of the full effect not given here; activation, % (concentration not given with the values); 410,000 tested, 0.12% active; AID 624414; in the data active = activation above about 50%; inconclusive = about 30% to 50%; inactive = below about 30%; further: 0% is about no effect; the text of the record puts the active cut at 80%
#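 Cells: TRPML1-DL, 1X Tet inducer, ~16 h at 37 degrees C/5% CO2. Dye: ABD Ca8 no-wash + quencher, 45-90 min RT. Read: 10 s baseline, compound add, 110 s agonist phase; 54-4 EC80 (4uM final), 110 s antagonist phase.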
# CtBP-E1A inh: inhibitors of CtBP/E1A interaction; AlphaScreen GST-E1A/His-CtBP binding, 1536-well; active compounds read low; control for the full effect not named in the record; activity change, % (concentration not given with the values); 340,000 tested, 0.49% active; AID 651724; in the data active means activity change below about -65%; inconclusive means about -30% to -65%; inactive means above about -30%; further: on the % scale 0 is the no-effect control and ±100 the full control effect
#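 Protein mix (5X: 125 nM each GST-E1A, His-CtBP) was incubated with pinned compound 2 h at 37 deg C in dark, in 50 mM Tris pH 8.0 buffer with 300 mM NaCl. Glutathione donor and nickel acceptor beads followed; AlphaScreen signal read after 1 h.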
# Six1-Eya2 inh: blocks human Six1 binding to Eya2; Q15475+O00167; AlphaScreen GST-Six1/His-Eya2 binding, biochemical; active compounds read low; control for the full effect not named in the record; activity change, % (test concentration not listed); 360,000 tested, 0.56% active; in the data active = activity change below about -65%; inconclusive = about -30% to -65%; inactive = above about -30%; further: on the % scale 0 is the no-effect control and ±100 the full control effect
# Target sequence (O00167 whole entry, looked up): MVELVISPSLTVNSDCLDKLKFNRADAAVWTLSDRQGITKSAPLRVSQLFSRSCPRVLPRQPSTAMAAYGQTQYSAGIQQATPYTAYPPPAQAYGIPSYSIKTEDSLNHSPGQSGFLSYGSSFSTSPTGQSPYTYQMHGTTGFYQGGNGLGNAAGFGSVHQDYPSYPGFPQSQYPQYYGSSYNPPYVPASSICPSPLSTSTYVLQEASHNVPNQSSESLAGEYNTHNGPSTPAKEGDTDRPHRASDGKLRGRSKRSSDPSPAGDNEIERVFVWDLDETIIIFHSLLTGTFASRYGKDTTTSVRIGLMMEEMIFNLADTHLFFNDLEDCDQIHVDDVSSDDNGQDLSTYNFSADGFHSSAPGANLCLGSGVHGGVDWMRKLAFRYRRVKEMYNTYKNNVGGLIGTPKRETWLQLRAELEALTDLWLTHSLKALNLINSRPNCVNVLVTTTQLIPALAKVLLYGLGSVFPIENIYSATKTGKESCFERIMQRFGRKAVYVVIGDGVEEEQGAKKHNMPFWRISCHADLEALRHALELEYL
# Target sequence (Q15475 whole entry, looked up): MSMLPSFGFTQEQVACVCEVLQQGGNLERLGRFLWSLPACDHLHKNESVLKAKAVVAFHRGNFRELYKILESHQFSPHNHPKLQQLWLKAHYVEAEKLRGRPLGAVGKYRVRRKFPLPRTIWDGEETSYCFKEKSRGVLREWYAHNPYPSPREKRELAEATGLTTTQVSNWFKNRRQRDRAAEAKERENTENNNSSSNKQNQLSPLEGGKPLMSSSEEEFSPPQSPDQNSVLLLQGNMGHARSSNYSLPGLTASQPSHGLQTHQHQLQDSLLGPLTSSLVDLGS
#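 Compounds are tested against tagged Six1 and Eya2 proteins bridged by glutathione donor and nickel acceptor beads; after a one-hour incubation at 37 °C without light, AlphaScreen emission is recorded.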
# The depositor's hits bear a star; ? = inconclusive; nt = not tested or not shown; & = joins results of further samples; [ ] = dose if it differs, or a comment. No enrichment for hits, and some 1% of all compounds hit somewhere here.
SMILES,TRPML1 inh,PINK1 modulator,D2 ag,TRPML1 agonist,CtBP-E1A inh,Six1-Eya2 inh
COc1ccccc1CNS(=O)(=O)c1c(C)nc2sc(C)cn2c1=O,9,0.7%,nt,-0.5,nt,nt
COC(=O)[C@@H](NC(=O)c1ccccc1OC1CCN(S(C)(=O)=O)CC1)C(C)C,20,-0.5%,-3.4,-0.5,-22,-7
CCc1nn(CC(=O)NCCN2CCOCC2)c(=O)c2cc3c(OC)cccc3n12,-4,-2.0%,2.6,2.7,nt,1
CCOC(=O)N1CCN(C(=O)CSc2ccc3nnc(CCNC(=O)c4ccc(OC)cc4)n3n2)CC1,13,1.6%,-0.1,-0.8,3,-4
COc1cc(Cl)c(C)cc1Nc1c2c(nc3ccccc13)CCC2,?,1.2%,nt,1.8,nt,nt
O=C(c1ccc(-c2cccc(C(F)(F)F)c2)o1)N1CCCCCCC1,9,?,-3.6,-0.4,0,-8
CCN(C[C@H]1N[C@@](CC)(C(=O)OC)[C@H]2C(=O)N(Cc3ccccc3)C(=O)[C@@H]12)C(=O)c1ccccc1,-19,2.5%,9.7,1.6,2,2
COc1ccc(C(C)(C)C)cc1NC(=O)COC(=O)c1ccc([N+](=O)[O-])o1,39,0.2%,-2.0,4.2,-8,-6
O=c1c(-c2ccccc2)[n+]([O-])c2ccccc2n1O,4,1.4%,-0.6,4.3,3,4
Cc1cccc(C)c1NC(=O)CN(C)C(=O)c1cccc(-n2cccc2)c1,-1,-1.4%,1.9,0.1,10,-15
COc1cc(C(=O)NC2CCN(C)CC2)ccc1Nc1ncc2c(n1)N(CCc1ccccc1)CCC(=O)N2C,-24,14%,3.8,-1.2,-24,-5
O=C(O)CCCC(=O)Nc1ccc(C(=O)N2CCCCC2)c(Cl)c1,6,1.6%,-3.3,0.4,4,5
c1ccc(-c2ccc(-c3ccccc3)[nH]2)cc1,-9,7.3%,4.7,-0.2,-21,-18
Cc1cc(C)c2c(c1)/C(=N/NC(=O)c1cc(C)oc1C)CCC2,-19,7.3%,-6.3,-0.5,17,4
COc1ccc(C(=O)Nc2ccc(CN3CCCCC3)cc2)cc1,4,3.3%,-2.8,-0.3,1,1

# Ordered by the number under TRPML1 inh (descending): 5 from the list above.
SMILES,TRPML1 inh
COc1ccc(C(C)(C)C)cc1NC(=O)COC(=O)c1ccc([N+](=O)[O-])o1,39
COC(=O)[C@@H](NC(=O)c1ccccc1OC1CCN(S(C)(=O)=O)CC1)C(C)C,20
COc1ccccc1CNS(=O)(=O)c1c(C)nc2sc(C)cn2c1=O,9
Cc1cccc(C)c1NC(=O)CN(C)C(=O)c1cccc(-n2cccc2)c1,-1
CCN(C[C@H]1N[C@@](CC)(C(=O)OC)[C@H]2C(=O)N(Cc3ccccc3)C(=O)[C@@H]12)C(=O)c1ccccc1,-19

# (continued)
SMILES,TRPML1 inh,PINK1 modulator,D2 ag,TRPML1 agonist,CtBP-E1A inh,Six1-Eya2 inh
COc1ccc(CCNC(=O)/C(C#N)=C/c2ccc(OCC(=O)NCC3CCCO3)cc2)cc1OC (configuration not stated),-5,0.6%,-0.3,-0.4,4,-3
Cn1c(=O)c2c(nc(NCc3ccco3)n2Cc2ccccc2Cl)n(C)c1=O,1,14%,0.5,0.7,12,-22
C=CCNC(=S)NNc1ncnc2sc3c(c12)CC(C)(C)OC3,6,-0.9%,4.3,-0.9,-13,-5
NS(=O)(=O)c1ccc(NC(=O)CCC(=O)N2CCOCC2)cc1,-13,0.6%,0.2,-0.5,1,-10
CCCCCc1ccc(CC(=O)Nn2c(C)nc3ccccc3c2=O)cc1,-6,-4.4%[38.3 µM],6.0,0.3,7,3
CSCCC(NS(=O)(=O)c1ccccc1F)C(=O)NCC(c1ccco1)N(C)C (configuration not stated),6,-3.7%,-3.9,0.0,5,1
O=C(CCCCn1c(=O)c2ccccc2n(CC(=O)NC2CCCC2)c1=O)NC1CCCC1,44,-2.1%,-1.6,-0.5,6,9
C[C@H](c1ccccc1)N1C[C@@H](COCc2ccccc2)Oc2cc(N3CC[C@H](N(C)C)C3)ccc2S1(=O)=O,nt,1.9%,nt,0.1,-6,?
N#CCC(=O)N/N=C/c1ccc(Sc2nc3ccccc3s2)o1,-4,2.2%,0.3,0.0,-16,-10
Cc1cccc(-c2noc(-c3ccccc3C(=O)NCC3CCCO3)n2)c1 (configuration not stated),-7,7.5%,0.9,0.8,-2,8
CCSc1nc(N)nc(-c2cccs2)c1C#N,16,4.5%,-0.6,0.2,-7,-17
CC(C)(C)c1cc[n+](-c2nc([O-])sc2C=O)cc1,3,-1.0%,-4.6,1.4,9,14
Cc1cc(C)cc(CSc2ccc(S(=O)(=O)N3CCCC3)cn2)c1,10,3.8%,-0.1,1.5,23,25
O=c1[nH]c(C(Cl)(Cl)Cl)nc2ccc3ccccc3c12,27,-2.3%,-2.7,4.5,-4,-7
COc1ccc(C(=O)C[n+]2cccc3cc(C)ccc32)cc1,-8,-0.6%,4.4,0.6,-2,3
Cc1cc(Nc2n[nH]c(N)c2C#N)ccc1F,15,-1.4%,-4.9,-1.1,nt,10
O=C1CCCc2c1cc(C(=O)O)c(=O)n2-c1ccccc1,8,0.1%,-1.9,0.2,4,3
Cc1c(C(=O)N2CCC(C)CC2)c(S(=O)(=O)N2CCN(c3ccc(Cl)cc3)CC2)c(C)n1C,-8,-1.0%,nt,0.3,nt,nt
CCOc1ccc(S(=O)(=O)Nc2ccccc2C(=O)NCc2ccco2)cc1,-2,-1.6%,-3.2,-0.8,7,2
Cc1ccc(N2CC(NC(=O)c3cc4ccccc4o3)CC2=O)cc1 (configuration not stated),-16,1.8%,nt,-0.7,nt,nt
CCCS(=O)(=O)Nc1cc2c(cc1NCc1ccccc1)n(C)c(=O)n2C,-5,3.7%,nt,-1.0,nt,nt
Cc1ccc(S(=O)(=O)N2CCN(Cc3ccc4c(c3)OCO4)CC2)cc1,-3,0.7%,nt,-0.7,nt,nt
Cc1cc(-c2nn(-c3ccccc3F)cc2CN2CCN(c3ccccn3)CC2)c(C)s1,4,8.6%,-0.8,-0.2,-21,-24
COc1ccc(C(=O)NCc2ccc(C(=O)NCC(OC)OC)cc2)cc1OC,-8,-0.4%,0.3,0.4,-19,0
Cc1ccc(S(=O)(=O)NCC(=O)OCCOc2cccc(Cl)c2)cc1,-6,1.6%,-1.2,1.1,16,5
COc1ccc(CNC(=O)CN(c2ccc(C)cc2)S(=O)(=O)c2c(C)noc2C)cc1,10&-5,8.5%&10%,0.1,0.5&1.4,-1,-5
O=C(COC(=O)C1=COCCO1)NCCCc1ccccc1,35,0.5%,-1.1,4.2,-1,5
COC(=O)CCC(=O)OC1(C)C(=O)C2=CN(C3CC3)C(c3ccc(OC)cc3)=CC2=C(Br)C1=O (configuration not stated),0,0.4%,7.5,1.5,?,1
CCn1nc(C)c(CNC(=O)C2CCC(=O)N(CCc3ccc(OC)cc3)C2)c1C (configuration not stated),-5,3.8%,1.0,-0.1,2,1
Nc1nn(S(=O)(=O)c2cccc3nsnc23)cc1-c1ccc(Br)cc1,-6,0.1%,2.2,1.0,-26,-25
O=C(Nc1ccc(C2=NCCN2)cc1)c1ccc(C(=O)Nc2ccc(C3=NCCN3)cc2)c(Cl)c1,-7,0.6%,-5.5,0.6,nt,-23
Cc1cc(=O)oc(C)c1C(=O)OCC(=O)c1ccc2ccccc2c1,-1,5.0%,-1.4,3.1,1,0
O=C(NC(Cc1ccccc1)C(=O)O)c1cccnc1Cl (configuration not stated),14,0.0%,-1.5,1.3,6,6
CC1(C2CC2)NC(=O)N(CC(=O)Nc2ccccc2-c2ccccc2)C1=O (configuration not stated),-8,-0.4%,-4.0,0.3,-1,31
O=C(NCc1ccccn1)c1nc(Cn2cc([N+](=O)[O-])cn2)no1,-6,0.9%,-2.1,1.2,-2,2
O=C(NCC(=O)N1CCN(Cc2ccccc2)CC1)c1cc(Cl)cc([N+](=O)[O-])c1,32,2.2%,6.9,-0.7,8,-1
CC1Cc2ccccc2N1Cc1nc2cc(Cl)ccc2c(=O)[nH]1 (configuration not stated),18,-0.3%,-0.6,-0.4,-5,-1
Cc1ccccc1C(=O)n1nc(-c2ccco2)nc1NCc1cccs1,-4,1.6%,nt,0.5,nt,nt
Cc1nc(N2CCCC2)c2c(C(=O)N3CCN(c4ccccc4)CC3)c(C)oc2n1,26,-17%,nt,0.5,nt,nt
FC(F)(F)c1ccc(C2=Nc3ccccc3NC(c3cccs3)=N2)cc1,-9,1.3%,nt,2.3,nt,nt
O=C(Cc1cccs1)N/N=C/C(Cl)=C/c1ccccc1,6,1.6%,4.9,-0.2,2,-2
CC(=O)c1ccc(-n2nncc2C)cc1,-29,-1.0%,-3.7,0.8,9,7
CCOC(=O)N(C)c1c(CC)nc2c(OCC(=O)C(C)(C)C)cccn12,30,-0.4%,-1.2,-0.3,4,4
COc1ccc(Cn2cc(CN3CC(N4CCCCC4)CS3(=O)=O)nn2)cc1 (configuration not stated),nt,0.3%,nt,0.1,27,-1
Cc1ccc(C(=O)NCCN2CCC(n3c(=O)[nH]c4ccccc43)CC2)cc1,nt,-0.4%,nt,-0.7,3,-5
CC1CCOC(c2coc3ccccc3c2=O)O1 (configuration not stated),11,2.0%,-0.3,-0.8,-5,10
O=C(c1ccccc1Cc1ccccc1)N1CCN(S(=O)(=O)c2ccccc2[N+](=O)[O-])CC1,-28,1.4%,-4.6,0.1,-7,-13
Cc1ccc(NC(=O)[C@@H]2O[C@H](CO)[C@@H](O)[C@H]2O)cc1C(F)(F)F,-4,0.1%,-4.4,0.0,3,0
Cc1cccc(C)c1NC(=O)CNC(=O)C1CC(=O)N(Cc2ccccc2)C1 (configuration not stated),2,-3.2%,-3.4,-0.2,3,14
COC(=O)Cn1cnc2sc(C)c(S(=O)(=O)N3CCC(C)CC3)c2c1=O,-3,-1.1%,-2.4,2.5,-3,0
COc1ccccc1NC(=O)Cn1c(=O)n(Cc2ccco2)c(=O)c2cccnc21,-1,-0.9%,nt,-0.1,nt,nt
Cc1cc(C(F)F)n2ncc(C(=O)N3CCC(C(N)=O)CC3)c2n1,-19,3.7%,0.4,0.6,5,5
CCOc1ccccc1N1CCN(Cc2cccc(OC)c2O)CC1,-1,6.0%[38.3 µM],13,0.6,-10,-4
O=C(CN(C(=O)c1ccc(Cl)cc1)N1C(=O)C2C3C=CC(C3)C2C1=O)c1cccs1 (configuration not stated),5,2.3%,6.8,0.3,-2,-7
Cc1noc(C)c1NC(=O)N(C)C[C@H]1OCc2cnnn2CCCC(=O)N([C@H](C)CO)C[C@@H]1C,0,-1.7%,0.1,-0.5,3,-2
CCCCN(C(=O)Cc1ccc2c(c1)OCCO2)c1c(N)n(CCC)c(=O)[nH]c1=O,-3,0.2%,-2.9,-0.4,nt,9

# One compound at a time, as listed above. Order of values: TRPML1 inh, PINK1 modulator, D2 ag, TRPML1 agonist, CtBP-E1A inh, Six1-Eya2 inh
# `Cc1ccc(NC(=O)[C@@H]2O[C@H](CO)[C@@H](O)[C@H]2O)cc1C(F)(F)F` reads -4, 0.1%, -4.4, 0.0, 3, 0
# `O=C(c1ccccc1Cc1ccccc1)N1CCN(S(=O)(=O)c2ccccc2[N+](=O)[O-])CC1` reads -28, 1.4%, -4.6, 0.1, -7, -13
